HPGD block: inhibitors of human 15-hydroxyprostaglandin dehydrogenase (HPGD) | P15428 | purified HPGD, NADH fluorescence kinetic, PGE2 substrate | Potency, µM, for the others: at the highest dose activity change, negative = inhibition, most hits filed as inhibitors | 4.3% of 150,000 active | AID 894; active = well fitted inhibition curve with a large enough effect (not every such curve was filed as active); inconclusive = small, poorly fitted or top-dose-only effect, or another doubt; inactive = no such curve, though single readings can be large or run the other way;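 also: top concentration of the series not given in the record; plate controls included wells without enzyme; inactives centre near -10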
Target sequence (P15428 whole entry, looked up): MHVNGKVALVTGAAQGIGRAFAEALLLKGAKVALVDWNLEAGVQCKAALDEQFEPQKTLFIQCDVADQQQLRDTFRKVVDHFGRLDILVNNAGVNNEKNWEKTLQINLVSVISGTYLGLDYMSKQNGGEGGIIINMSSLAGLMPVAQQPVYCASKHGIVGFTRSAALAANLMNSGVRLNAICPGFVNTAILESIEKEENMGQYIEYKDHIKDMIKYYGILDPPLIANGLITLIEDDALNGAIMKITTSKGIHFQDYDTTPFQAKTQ
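20 nM HPGD preincubated 15 min at room temperature with compound in 50 mM Tris-HCl pH 8, 0.01% Tween 20. Started with 1 mM NAD+ and 30 uM prostaglandin E2; NADH fluorescence (360/450 nm) read 5 times over 30-s intervals, last minus first.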
* = called active by the depositor; u = inconclusive; & = joins results of further samples. % is scaled to controls: 0 for no effect and ±100 for the full control effect; potency is read from the fitted curve at half-maximal effect. Only part of the results is shown; rates above refer to the full screens.

HPGD block	smiles
3%	CC1CCCCN1C(=O)Cn1cc(C#N)c2ccccc21 (centres undefined)
13µM*	Clc1ccc(-c2nn3c(C4COc5ccccc5O4)nnc3s2)cc1 (centres undefined)
-11%	COc1ccc2c(c1OC)C(=O)OC2CC(=O)c1ccc(N(C)C)cc1 (centres undefined)
-10%	O=C(COC(=O)[C@H](Cc1ccccc1)NS(=O)(=O)c1ccccc1F)NC1CCCCC1
-11%	Cc1nnc(SCC(=O)Nc2ccc(Br)cn2)[nH]c1=O
-10%	CCN1C(=O)C(CC(=O)Nc2ccc(OC)cc2)N(Cc2ccco2)C1=S (centres undefined)
-13%	Clc1cc(CSc2ccccc2)nc(-c2ccccc2)n1
u	CC1=C(C(=O)OC(C)C)C(c2cccnc2)C2=C(CC(C)(C)CC2=O)N1 (centres undefined)
-2%	C/C(CC(=O)Nc1c(C)cc(C)cc1C)=N\NC(=O)c1cnccn1
u	CCOc1cc(C2Nc3ccccc3C(=O)N2c2ccccc2OC)ccc1O (centres undefined)
-15%	CCn1nc(C(=O)NCc2ccco2)c(Cl)c1Cl
-10%	O=[N+]([O-])c1cc(Oc2cccnc2)cc([N+](=O)[O-])c1
-5%	C#CCn1cc(C=C2C(=O)c3ccccc3C2=O)c2ccccc21
-2%	COc1ccc2c(c1)O[C@@H](c1cccc(C(F)(F)F)c1)[C@H](OC(=O)Nc1ccc(C)c(Br)c1)C2=O
-4%	CCOC(=O)C1CCCN(C2CC(=O)N(c3ccc(C)c(C)c3)C2=O)C1 (centres undefined)
-4%	N#CC1(P(=O)(c2ccccc2)c2ccccc2)CC1
0.79µM*	Cc1ccnc(-n2sc3ccccc3c2=O)n1
-14%	Cc1sc(NC(=O)CN2CCOCC2)c(C(=O)c2ccccc2)c1C
16µM*	CCCCn1c(-c2csc3c2CCCC3)n[nH]c1=S
2%	CCOC(=O)C1=C(C)NC(=O)NC1c1ccc(OC(C)C(=O)O)c(OC)c1 (centres undefined)
-9%	CC1CCCN(S(=O)(=O)Cc2ccc(Cl)cc2)C1 (centres undefined)
-15%	O=C(CC1Nc2cccc3cccc(c23)NC1=O)Nc1ccccc1 (centres undefined)
28µM*	O=C(COc1ccc(Cl)cc1Cl)Nn1c(=S)[nH]c2ncccc2c1=O
-15%	Clc1ccc(-c2nc3ccccn3c2CN2CCOCC2)cc1
-8%	COc1ccc(N2CCN(C(=N)/C(C(C)=O)=C(\C)O)CC2)cc1
16µM*	CSC(=NNC(=O)c1ccc(O)cc1)SC
4%	CC(C)NC(=O)C1(c2ccccc2)CCOCC1
-5%	CCN1C(=O)C(C)S/C1=N\S(=O)(=O)c1ccc(Cl)s1 (centres undefined)
-11%	Cc1ccc(C)c(-n2[nH]c3c4c(ccc3c2=O)C(=O)c2ccccc2C4=O)c1
-20%&-2%	COC(=O)[C@@]1(Cc2ccc(OC)cc2)[C@H]2c3cc(C(=O)N4CCCC4)n(CCSCCO)c3C[C@H]2CN1C(=O)c1ccccc1

Four entries drawn at random from the list so far:
HPGD block	smiles
-9%	CC1CCCN(S(=O)(=O)Cc2ccc(Cl)cc2)C1 (centres undefined)
-15%	O=C(CC1Nc2cccc3cccc(c23)NC1=O)Nc1ccccc1 (centres undefined)
-2%	COc1ccc2c(c1)O[C@@H](c1cccc(C(F)(F)F)c1)[C@H](OC(=O)Nc1ccc(C)c(Br)c1)C2=O
-11%	Cc1nnc(SCC(=O)Nc2ccc(Br)cn2)[nH]c1=O

Later entries.
HPGD block	smiles
-7%	Cc1cccc(NC(=O)CSc2nnc(-c3ccccc3C)o2)c1
1%	Cn1c(O)c(N=NC(=O)Cn2c(C(F)(F)F)nc3ccccc32)c2ccccc21
-15%	Cn1c(=O)c2c(ncn2CCCNC2=CC(C)(C)CC(=O)C2)n(C)c1=O
-9%	COc1ccc(-c2cc(=O)[nH]c(NCc3ccccc3)n2)cc1
-5%	OC[C@@H](O)[C@@H](O)[C@@H](O)[C@@H](O)c1nc2ccc(Cl)cc2[nH]1
-10%	CCCCn1ccc(=O)c2c(C(F)(F)F)nccc21
-16%	CC(=O)N(c1ccccc1C)C1CCCC1
-7%	CN(C)c1ccc(C2N([C@H](C#N)c3ccc(N(C)C)cc3)CCCN2[C@@H](C#N)c2ccc(N(C)C)cc2)cc1 (some centres undefined)
-7%	Cc1nn(-c2ccccc2)c(-n2cccc2)c1C(=O)O
-13%	CC(C)(C)c1ccc(C(=O)NCCC(=O)N2CCN(c3ncccn3)CC2)cc1
-6%	O=C(Oc1ccc2c(=O)c(Oc3ccc4ccccc4c3)coc2c1)c1ccco1
u	Cc1cccc(NC(=O)CSc2nnc(NC(=O)c3ccc(S(=O)(=O)N4CCOCC4)cc3)s2)c1C
-16%	COc1ccc(NC(=O)C2CCCN2C(=O)Nc2ccccc2)cc1OC (centres undefined)
u	c1ccc(CN2CCN(c3nc4ccccc4c4ccccc34)CC2)cc1
-17%	CCCCSc1nnc2c(n1)OC(C(=O)c1ccccc1)Nc1ccccc1-2 (centres undefined)
-4%	CCOCCOc1nc2c(c(=O)n(C)c(=O)n2C)n1CCc1ccccc1
2.2µM*	CC(C)C(OC(=O)c1nsc(Cl)c1Cl)C(=O)NCc1ccc2c(c1)OCO2 (centres undefined)
-17%	CCCCn1c(=O)c(C(=O)c2ccccc2)nc2ccccc21
-4%	CCOc1ccc(Nc2cc(=O)n(C)c(=O)n2C)cc1
-21%	Cc1ccc(S(=O)(=O)NC2CCCc3ccccc32)cc1C (centres undefined)
-10%	CCOC(=O)c1cc(-c2ccccc2)sc1NC(=O)C(C)Sc1nnc(C)s1 (centres undefined)
-12%	CC(C)NC(=O)CN1C(=O)NC(CCc2ccccc2)C1=O (centres undefined)
4%	O=C(NCCCn1ccnc1)c1cccnc1
-5%	CC(C)(C)Cc1nc2ccccc2n1CCc1ccccc1
-6%	COCCNC(=O)c1nn(-c2cc(OC)cc(OC)c2)c(=O)c2ccccc12
-13%	CCCCCCCCC(=O)Nc1cc(C)ccc1OC
-1%	COc1ccc(C(=O)NNC(=S)NC(=O)c2ccccc2[N+](=O)[O-])cc1
-10%	COCC(=O)C(C(=O)OC)[C@H](CCc1ccccc1)NC(=O)OC (some centres undefined)
-2%	Clc1ccc(Cn2c(-c3cccnc3Cl)nc3ccccc32)c(Cl)c1
2%	CC1CCCCC1NC(=O)C(=O)NCC1CCCO1 (centres undefined)
-11%	CCOC(=O)n1c(=O)n(Cc2ccccc2Cl)c2ccccc21
0%	COc1ccccc1C(O)(C(=O)NNc1cccc(C)c1)c1ccccc1OC
u	CC(C)n1c(=NC(=O)c2ccco2)c(C#N)cc2c(=O)n3ccccc3cc21
-14%	C=CCn1c(SCC(=O)NC(=O)NCc2ccco2)nc2sc(CC)cc2c1=O
-6%	CCCNC(=O)C1CN(S(=O)(=O)c2ccccc2)CCN1S(=O)(=O)c1ccccc1 (centres undefined)
-29%	O=C(COc1ccccc1/C=C1/NC(=O)NC1=O)Nc1ccccc1
-29%	O=C(O)c1cc2cc(Cl)ccc2oc1=O
-13%	COc1ncc2nc(CCc3ccccc3)c(=O)n(Cc3cccs3)c2n1
-8%	O=C(C1CCCO1)N1CCN(S(=O)(=O)c2cccc3nsnc23)CC1 (centres undefined)
u	Cc1nn(CCO)c2nc(-c3cccs3)cc(C(F)(F)F)c12
-6%	CC(C)CC(=O)c1c[nH]c(C(=O)NCCCN2CCOCC2)c1
-21%	COc1ccc2nc(C)cc(SCC(=O)N/N=C/c3ccc(O)cc3O)c2c1
10µM*	COc1ccc(S(=O)(=O)Nc2nnc(C(C)(C)C)s2)cc1
2%	Cc1ccc(OC(=O)CCC(=O)Nc2ccc(Br)cc2)cc1
-12%	CCOC(=O)C1=C(C(F)(F)F)Nc2ncnn2C1c1cc(OC)ccc1OC (centres undefined)
-15%	CCc1ccc(-c2nc(CSCC(=O)NCCCN3CCCC3=O)c(C)o2)cc1
u	Cc1cccc(-c2cc(=O)c3cc(C)ccc3o2)c1
-14%	COc1ccc(CC(=O)O/N=C(\N)Cc2ccc(OC)c(OC)c2)cc1
-11%	COc1ccc(N(CC(=O)NC2CCCC2)C(=O)c2ccc(N3CCCCC3)nc2)cc1
-2%	CC1(C)CC(=O)C2=C(C1)NCN(Cc1ccc3c(c1)OCO3)C2
u	O=C(N/N=C/c1c[nH]c2ccccc12)c1cc(-c2ccc3ccccc3c2)n[nH]1
-14%	COc1ccc(S(=O)(=O)N(C)CC(=O)Nc2ccc(C(F)(F)F)cc2)cc1Cl
-24%	Cc1sc2ncnc(NCc3ccco3)c2c1C
-8%	O=C1Nc2ncccc2OC1CCCl (centres undefined)
14µM*	CC(=O)NCCc1c(Cc2ccccc2)[nH]c2ccccc12
-16%	N/C(=N\OS(=O)(=O)c1cccc([N+](=O)[O-])c1)c1ccncc1
22µM*	COc1ccc(OC)c(C2C3=C(N=C4SCC(=O)N42)c2ccccc2CC3)c1 (centres undefined)
-25%	Cc1ccccc1CSc1ccc(-c2ccc3c(c2)OCO3)nn1
-3%	CC/C(C)=N/O
-7%	CCOc1nc(NCCC2=CCCCC2)nc(N2CCOCC2)n1

Next section:
HPGD block	smiles
13µM*	COc1c(O)c(O)cc2c1oc1c3ccccc3oc(=O)c21
-7%	O=C(O)C1C2C=CC(C2)C1C(=O)OCC1CCCO1 (centres undefined)
9%	CCOC(=O)C1(Cc2ccc(O)cc2)NC(c2ccccc2F)C2C(=O)N(C)C(=O)C21 (centres undefined)
-28%	CS(=O)(=O)c1ncc(Cl)c(C(=O)Nc2ccc(N3CCOCC3)cc2)n1
-9%	O=C(Nc1ccccc1N1CCOCC1)c1cccc([N+](=O)[O-])c1
-11%	Cc1ccc(NC(=O)CSc2nccc(=O)[nH]2)c(S(=O)(=O)N2CCOCC2)c1
-3%	CC1=C(C(N)=O)C(c2ccc(Cl)cc2)NC(=O)N1 (centres undefined)
-2%	COc1ccc(C(=O)CSc2nc3ccccc3n2CC(=O)NC(C)(C)C)cc1
0%	C[C@H]1Cc2c(-c3ccccc3)nc3c(c2CO1)CN(C(=O)NCCc1c[nH]c2ccccc12)CC3
-23%	O=C(Oc1ccc(-c2cn3c(n2)SCC3)cc1)c1ccccc1
-2%	Cn1cc(Cl)c(C(=O)NNC(=S)NC2CCCCC2)n1
u	c1coc(CNc2nc(N3CCCCC3)nc3ccccc23)c1
u	COCCCNC(=O)c1ccc(Cn2c(=O)[nH]c3ccccc3c2=O)cc1
22µM*	CN(C)CCNc1nc2c(c(=O)[nH]c(=O)n2C)n1CC(O)COc1ccc(Cl)cc1Cl (centres undefined)
-1%	O=C(NCc1cccs1)C1CCN(S(=O)(=O)c2ccc3c(c2)OCCO3)CC1
-10%	CCOC(=O)N1CCN(C(c2ccc(F)cc2)c2sc3nc(C)nn3c2O)CC1 (centres undefined)
2%	CCC(C)(C(=O)Nc1ccccc1C)N(C(=O)CNC(C)=O)c1ccc(C)cc1 (centres undefined)
-3%	Cc1nn(Cc2n[nH]c(=S)n2Cc2ccccc2)c(C)c1Cl
-9%	CCCCCCn1c(CN2CCN(Cc3ccccc3)CC2)nc2c1c(=O)n(C)c(=O)n2C
-17%	C=CCn1c2ccccc2c2nnc(SC(CC)C(=O)Nc3nc(C)c(C(=O)OCC)s3)nc21 (centres undefined)
-6%	C#CCCOC(=O)N1C2=NC(C(=O)OC)=C(C(=O)OC)[C@@H]3N(Cc4ccccc4)c4ccccc4[C@]23C[C@H]1C(=O)OC
u	O=C1OCCN1C(=O)[C@H]1[C@H](c2ccc(Cl)cc2)C(c2ccccc2)=NN1c1ccccc1
-13%	Cc1cccc(NC(=O)c2cc(S(=O)(=O)NCc3ccco3)ccc2F)c1C
-8%	Cc1cccc2cc(C#N)c(SCC(=O)NNC(=O)Cc3ccccc3)nc12
-7%	CC(C)CC(=O)CN1C(=O)C2(OCCO2)c2ccccc21
1%&-8%	CC(=O)Nc1ccc(OC[C@@H](O)CNC(C)C)cc1
-3%	CCn1ncc(/C=N/O)c1C
-9%	CC(Sc1nnc(-c2ccc(O)cc2)o1)C(=O)Nc1cccc2ccccc12 (centres undefined)
-11%	Cn1c(NCC(O)CO)nc2c1c(=O)n(Cc1ccc(Cl)c(Cl)c1)c(=O)n2C (centres undefined)
-15%	COCCn1c(SCC(=O)Nc2ccccc2C)nc2c(oc3ccccc32)c1=O
-4%	CC(C)COC[C@H](CN(Cc1ccccc1)c1ccccc1)N1CCCC1
-13%	COc1ccccc1NC(=O)N(CCN(C)C)Cc1cc2cc(C)ccc2[nH]c1=O
-10%	CCCC[C@@H]1C[C@H]1C(NC(=O)c1ccccc1)c1ccccc1 (some centres undefined)

Compounds above that contain two or more sulfur atoms (12):
HPGD block	smiles
16µM*	CCCCn1c(-c2csc3c2CCCC3)n[nH]c1=S
16µM*	CSC(=NNC(=O)c1ccc(O)cc1)SC
-5%	CCN1C(=O)C(C)S/C1=N\S(=O)(=O)c1ccc(Cl)s1 (centres undefined)
u	Cc1cccc(NC(=O)CSc2nnc(NC(=O)c3ccc(S(=O)(=O)N4CCOCC4)cc3)s2)c1C
-10%	CCOC(=O)c1cc(-c2ccccc2)sc1NC(=O)C(C)Sc1nnc(C)s1 (centres undefined)
-14%	C=CCn1c(SCC(=O)NC(=O)NCc2ccco2)nc2sc(CC)cc2c1=O
-6%	CCCNC(=O)C1CN(S(=O)(=O)c2ccccc2)CCN1S(=O)(=O)c1ccccc1 (centres undefined)
-8%	O=C(C1CCCO1)N1CCN(S(=O)(=O)c2cccc3nsnc23)CC1 (centres undefined)
10µM*	COc1ccc(S(=O)(=O)Nc2nnc(C(C)(C)C)s2)cc1
-11%	Cc1ccc(NC(=O)CSc2nccc(=O)[nH]2)c(S(=O)(=O)N2CCOCC2)c1
-1%	O=C(NCc1cccs1)C1CCN(S(=O)(=O)c2ccc3c(c2)OCCO3)CC1
-17%	C=CCn1c2ccccc2c2nnc(SC(CC)C(=O)Nc3nc(C)c(C(=O)OCC)s3)nc21 (centres undefined)

From PubChem BioAssay
